CtBP-E1A inh: CtBP/E1A binding inhibition; AID 651724; AlphaScreen GST-E1A/His-CtBP binding, 1536-well; stronger effect = lower value; control for the full effect not named in the record; 340,000 tested, 0.49% active; activity change, % (no concentration beside the values); in the data active means activity change below about -65%; inconclusive means about -30% to -65%; inactive means above about -30%; note: % is set by controls: 0 for no effect and ±100 for the full control effect; compound concentration not given in the record
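AlphaScreen with 125 nM GST-E1A and 125 nM His-CtBP (5X stocks) in Tris pH 8.0, 300 mM NaCl, BSA, Tween 20, TCEP. Compounds preincubated 2 h at 37 deg C, then glutathione donor/nickel acceptor beads added for 1 h at 37 deg C in dark.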
Six1-Eya2 blk: inhibitors of human Six1/Eya2 interaction; AlphaScreen GST-Six1/His-Eya2 binding, biochemical; stronger effect = lower value; control for the full effect not named in the record; 360,000 tested, 0.56% active; activity change, % (no concentration beside the values); Q15475+O00167; in the data active = activity change below about -65%; inconclusive = about -30% to -65%; inactive = above about -30%; note: % is set by controls: 0 for no effect and ±100 for the full control effect; compound concentration not given in the record
Target sequence (O00167 whole entry, looked up): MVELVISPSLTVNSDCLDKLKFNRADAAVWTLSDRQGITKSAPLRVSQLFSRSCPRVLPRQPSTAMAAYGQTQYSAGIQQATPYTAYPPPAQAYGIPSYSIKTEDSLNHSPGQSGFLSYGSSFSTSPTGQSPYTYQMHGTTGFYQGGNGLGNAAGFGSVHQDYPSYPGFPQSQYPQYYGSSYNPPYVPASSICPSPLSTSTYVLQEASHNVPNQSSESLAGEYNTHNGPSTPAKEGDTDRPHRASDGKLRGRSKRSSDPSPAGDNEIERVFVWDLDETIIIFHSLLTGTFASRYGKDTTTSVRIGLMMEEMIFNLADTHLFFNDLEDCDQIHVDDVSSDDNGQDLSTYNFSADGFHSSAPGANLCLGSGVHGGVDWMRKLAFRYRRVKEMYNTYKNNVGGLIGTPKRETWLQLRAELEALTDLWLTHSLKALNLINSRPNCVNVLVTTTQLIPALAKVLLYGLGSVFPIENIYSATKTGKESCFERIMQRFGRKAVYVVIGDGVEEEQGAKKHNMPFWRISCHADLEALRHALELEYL
Target sequence (Q15475 whole entry, looked up): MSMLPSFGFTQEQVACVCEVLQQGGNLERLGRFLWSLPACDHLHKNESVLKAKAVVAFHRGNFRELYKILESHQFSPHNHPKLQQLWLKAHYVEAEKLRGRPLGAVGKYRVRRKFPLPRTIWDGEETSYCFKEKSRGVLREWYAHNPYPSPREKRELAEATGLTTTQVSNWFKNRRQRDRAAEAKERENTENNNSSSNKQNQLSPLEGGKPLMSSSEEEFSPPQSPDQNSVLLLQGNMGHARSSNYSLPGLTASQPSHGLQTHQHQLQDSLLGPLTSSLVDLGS
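AlphaScreen luminescence read after one hour at 37 °C in darkness. Pin-transferred compounds met GST-Six1 and His-Eya2 protein (5X stock 250 nM/500 nM) plus glutathione donor and Ni-chelate acceptor beads (5X, 50 ug/mL).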
D2 PAM: positive allosteric modulators of human D2 dopamine receptor. potentiation, % (no concentration beside the values). AID 624464. DiscoveRx D2 beta-arrestin cells, luminescence, 90 min; 100% = 57 uM dopamine signal. 360,000 tested, 0.23% active; active = potentiation of 50% or more; inconclusive = 30% to 50%; inactive = 30% or less;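 note: compound concentration not given in the record; tested on top of an EC20 dose of dopamine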
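PathHunter D2 cells, attached overnight at 37 deg C, received compound in DMSO plus dopamine at EC20 (50 nM final) for 90 min at 37 deg C. Beta-arrestin recruitment was read as luminescence after 1 h with detection reagent at ambient temperature.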
D2 ag: human D2 receptor agonism in beta-arrestin assay; activation, % (concentration not given with the values); DiscoveRx PathHunter D2 beta-arrestin, luminescence, 90 min; 100% = 57 uM dopamine signal; 360,000 tested, 0.084% active; AID 624465; P14416; in the data active = activation above about 40%; inconclusive = about 15% to 40%; inactive = below about 15%; note: compound concentration not given in the record; the text of the record calls up to 30% inactive
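DiscoveRx PathHunter D2 beta-arrestin cells (2,100/well) attached overnight, then compound-stimulated 90 min at 37 C in HBSS/10 mM HEPES/0.1% Tween-20 buffer; beta-galactosidase complementation read by luminescence after 1 h at ambient temperature. Dopamine 57 uM final (EC100) as control.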
Sfp inh: inhibitors of Bacillus subtilis Sfp phosphopantetheinyl transferase; Q9F4F7; Potency, µM, inactives show max response, negative = inhibition, usual class: inhibitors; AID 1490; 310,000 tested, 3.5% active; Biochemical Sfp PPTase activity, qHTS; active = well fitted inhibition curve with a large enough effect; inconclusive = small, poorly fitted or top-dose-only effect, or another doubt; inactive = no such curve, though single readings can be large or run the other way;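 note: the enzyme is Sfp with the accession as filed and its product quenches rhodamine fluorescence; potency is the fitted concentration of half-maximal effect; 0% = enzyme reaction without inhibitor and -100% = no enzyme wells; top concentration of the series not given in the record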
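Buffer: 50 mM Hepes-Na pH 7.6, 10 mM MgCl2, 0.01% Nonidet P-40, 0.01% BSA. Enzyme 15 nM, pre-exposed to compound 15 min; substrates then added and fluorescence change tracked over 30 min.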
PINK1 modulator: changes PINK1 expression | 410,000 tested, 0.2% active | PINK1 immunofluorescence, high-content cytometry, 24 h | Potency, µM (doses to about 76.6 µM), for inactives: top-dose activation (PINK1 increase), actives largely listed as activators; active = well fitted activation curve with a large enough effect; inconclusive = small, poorly fitted or top-dose-only effect; inactive = flat fitted curve, though single readings scatter; cell line not stated here;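 note: potency is the fitted concentration of half-maximal effect; % of control where 0% means no effect; nearly all actives have a fitted effect of over 65% in size; a mitochondrial uncoupler was the plate control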
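Stable cell line treated 24 h with compounds at 5 concentrations (CCCP controls), then fixed and immunostained for PINK1 plus nuclear and cell stains; PINK1 immunofluorescence quantified by laser-scanning microplate cytometry.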
TRPV1 potentiator: potentiators of human vanilloid receptor 1 (TRPV1); potentiation, % at 8.33 µM; AID 540277; 320,000 tested, 0.02% active; TRPV1-expressing cells, Fluo-8 calcium influx, capsaicin EC20 potentiation; host cell line not named in the record; control for the full effect not named in the record; Q8NER1; active means potentiation above 80%; inconclusive means 30% to 80%; inactive means below 30%; note: 0% is about no effect
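TRPV1-expressing cells were cultured overnight at 35.5C and loaded with Fluo-8 calcium dye for 40 to 90 min at room temperature. After a 10 s baseline, compound was added and calcium influx was read kinetically for 3 min (ex 480/em 520 nm).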
An asterisk follows results filed as active; ? = inconclusive; . = no result given; [ ] = dose if it differs, or a comment. Rows were taken by chance; about 3.7% have a hit in one of these screens.

SMILES	CtBP-E1A inh	Six1-Eya2 blk	D2 PAM	D2 ag	Sfp inh	PINK1 modulator	TRPV1 potentiator
CN(c1cc(=O)n2ccccc2n1)C1CCCCC1	2	5	-18	-3.2	5%	-1.5%	-16
Cn1c(=O)cc(NCc2ccccc2)[nH]c1=O	38	19	-35	-3.4	1%	0.2%	4
CN1CCN(NC(=O)/C=C/c2cccc(Cl)c2)CC1	3	-14	-3	15	-1%	-0.7%	-13
CCOC(=O)c1c(NC(=O)c2nn(C)cc2[N+](=O)[O-])sc(C)c1C	1	3	4	-6.2	15%	0.9%	-14
CNc1oc(C)nc1S(=O)(=O)c1ccc(C)cc1	-3	1	-2	-3.5	45µM*	-3.5%	10
Cc1cc(NC(=O)c2ccccc2Oc2ccccc2)no1	10	11	8	0.7	-4%	.	8
O=C1c2ccccc2C(Nc2ccc(S(=O)(=O)N3CCCCCC3)cc2)N1Cc1ccco1 (stereo not given)	25	-2	-2	-1.5	-5%	0.8%	-3
CC(C)CCNc1ncnc2c1cnn2Cc1ccccc1Cl	2	15	3	0.6	0%	4.8%	8
CCN(CC(=O)Nc1cccc(S(=O)(=O)N2CCCCC2)c1)Cc1ccccc1	0	-12	-9	-0.8	.	0.8%	-15
CC(C)(C)CN1CCNC(=O)C1CC(=O)NCCN1CCCc2ccccc21 (stereo not given)	-1	-8	-4	1.9	-15%	1.5%	0
COc1ccc(CCNC(=O)CSc2nc3c(sc(=S)n3-c3ccccc3)c(=O)[nH]2)cc1OC	0	-10	-4	-2.6	.	1.4%	.
COc1cccc(O)c1CN1CCC(C(=O)Nc2ccc(Oc3cccnc3)cc2)CC1	0	17	-24	-0.6	8%	-0.1%	-1
CN(C)/C=C/c1oc2ccc(O)cc2c1[N+](=O)[O-]	12	-27	-25	-14	8%	5.0%	8
Cc1cc2nc(-c3ccc(F)cc3)c(Cc3ccccc3)n2c(C)c1Br	0	-2	-3	-2.3	.	22%	.
CCCn1c(=O)n(C)c(=O)c2c(SCC(=O)NCC(c3ccccc3)N(C)C)nc(CC(C)C)nc21 (stereo not given)	0	-5	7	-7.0	-8%	-1.5%	3
O=C(COC(=O)Cc1ccccc1F)Nc1cc(S(=O)(=O)N2CCOCC2)ccc1N1CCCC1	2	-4	-10	0.9	6%	-0.5%	14
Nc1c(S(=O)(=O)c2ccccc2)c2nc3ccccc3nc2n1CCN1CCOCC1	.	-3	-4	-0.6	4%	3.0%	-1
CCOC(=O)c1c(C)nn(-c2ccc(NC(=O)c3c(C)noc3C)cc2)c1C	2	7	12	7.0	7%	-0.2%	-10
Cc1noc(/C=C/c2cccs2)c1S(=O)(=O)N1CCC(C(=O)NCCCN2CCC(C)CC2)CC1	-1	18	-11	-6.4	-3%	-0.4%	-5
O=C(NNC(=S)Nc1ccccc1)c1ccncc1	-1	0	-10	-6.7	3%	-0.8%	-2
CC(=O)N=C1SC2CS(=O)(=O)CC2N1Cc1ccc(C)cc1 (stereo not given)	-1	5	-1	0.5	11%	-2.1%	1
COc1cc2cc(C)c3nnc(SCC(=O)Nc4cc(C)on4)n3c2cc1OC	-20	-20	2	-1.2	-18%	1.1%	108*
COc1cccc(C(=O)CC(C(=O)O)c2ccc(F)cc2)c1 (stereo not given)	2	-2	-6	-1.3	8%	0.1%	3
CCOC(=O)NC(=O)c1cn(N(C)c2ncc(C(F)(F)F)cc2Cl)c(=O)[nH]c1=O	6	-2	2	-5.7	17%	1.0%	-1
CCN(CC)S(=O)(=O)c1ccc(OC)c(NC(=O)c2cc(=O)[nH]c3ccccc23)c1	15	2	-11	5.7	26%	-0.2%	-19

Arranged by value in D2 ag (high to low): 6 from the list above
structure	D2 ag
Cc1cc(NC(=O)c2ccccc2Oc2ccccc2)no1	0.7
CC(=O)N=C1SC2CS(=O)(=O)CC2N1Cc1ccc(C)cc1 (stereo not given)	0.5
CCN(CC(=O)Nc1cccc(S(=O)(=O)N2CCCCC2)c1)Cc1ccccc1	-0.8
Cn1c(=O)cc(NCc2ccccc2)[nH]c1=O	-3.4
CNc1oc(C)nc1S(=O)(=O)c1ccc(C)cc1	-3.5
CCCn1c(=O)n(C)c(=O)c2c(SCC(=O)NCC(c3ccccc3)N(C)C)nc(CC(C)C)nc21 (stereo not given)	-7.0

2 compounds from above, limited to PINK1 modulator, Sfp inh and TRPV1 potentiator:
Molecule	PINK1 modulator	Sfp inh	TRPV1 potentiator
O=C(COC(=O)Cc1ccccc1F)Nc1cc(S(=O)(=O)N2CCOCC2)ccc1N1CCCC1	-0.5%	6%	14
Nc1c(S(=O)(=O)c2ccccc2)c2nc3ccccc3nc2n1CCN1CCOCC1	3.0%	4%	-1

The listing continues:
SMILES	CtBP-E1A inh	Six1-Eya2 blk	D2 PAM	D2 ag	Sfp inh	PINK1 modulator	TRPV1 potentiator
COc1ccc2oc(C(=O)c3ccccc3)c(N)c2c1	3	8	1	-2.4	5%	0.9%	3
CCOC(=O)NC(=O)/C(C=Nc1ccc(Cl)cc1)=C(\C)O	5	-3	-4	-4.8	20%	0.2%	0
COc1cc(C(=O)OCc2nc3ccsc3c(=O)[nH]2)c([N+](=O)[O-])cc1OC	1	-4	-11	-5.1	.	-0.6%	5
Cc1noc(C)c1C(=O)N1CCN(S(=O)(=O)c2cccs2)CC1	-1	1	9	-4.8	.	0.1%	.
CC(=O)c1c(C)[nH]c(C(=O)OCC(=O)N2c3ccccc3NC(=O)C2(C)C)c1C	-21	-14	1	-1.7	0%	1.9%	-13
Cc1cc([N+](=O)[O-])nn1CCCC(=O)Nc1ccc2c(c1)OCO2	7	-4	-24	-4.0	12%	2.4%	1
Cc1nc(NCc2ccco2)nc2c1C(=O)CC(C)C2 (stereo not given)	-14	-5	-1	-2.6	15%	-0.4%	-4
O=C(O)/C=C/C(=O)NCc1ccccn1	-12	6	8	-1.7	-17%	0.2%	-7
Nc1nc2ccccc2n1Cc1ccc(Cl)c(Cl)c1	-11	0	-3	-1.5	-26%	0.7%	-2
COc1ccc(C(c2nnnn2C2CCCC2)N2CCN(C/C=C/c3ccccc3)CC2)cc1 (stereo not given)	-18	-18	-16	-4.0	.	6.2%	.
N#CCSc1nc2ccccc2c(=O)n1CCC(=O)NC1CCCCC1	2	1	-8	-1.6	-20%	15%[38.3 µM]	-12
CCOC(=O)C1=C(CNCCOc2ccc(OC)cc2)NC(=O)NC1c1ccc2c(c1)OCO2 (stereo not given)	8	-17	-13	-2.9	7%	-1.8%	-3
Cc1c(Br)cc(C(=O)N2CCN(CCO)CC2)c(C)c1C	1	4	3	0.1	17%	-1.3%	-9
O=C(NCc1cccnc1)c1ccc(S(=O)(=O)N2CCCCCC2)cc1	2	13	-3	-5.1	12%	-0.7%	-24
O=C1NC(=O)/C(=C/c2ccccc2OCc2ccccc2)S1	-22	-3	-8	-3.0	-20%	0.9%	-9
CCCc1cc(=O)[nH]c(SCC(=O)N2c3ccccc3NC(=O)C2(C)C)n1	.	4	-2	-2.3	.	0.8%	.
COc1ccc(N(CC(=O)N/N=C/c2cccc3c2OCCO3)S(=O)(=O)c2ccc(NC(C)=O)cc2)cc1	-5	-17	-41	-0.3	0%	5.2%	-1
Cc1ccsc1C(=O)OCC(=O)c1ccc[nH]1	34	5	4	0.5	.	4.3%	5
Cc1cc(C(=O)CSc2ccc(F)cc2)cc(C)c1OC(=S)N(C)C	2	13	-12	-0.4	-18%	5.4%	1
CCOc1ccc(NC(=O)Nc2cc(C)ccc2OC)cc1	1	-2	-13	-2.0	13%	8.5%	?
COc1cccc(CSc2nc3nc(C)cc(C)n3n2)c1	-3	-11	-5	-0.9	8%	1.1%	3
Cn1cnnc1Sc1ccc(/C=C(\CC(=O)O)c2nc3ccccc3s2)cc1[N+](=O)[O-]	-13	-17	0	-3.5	4%	2.3%	.
CN(C)c1ccc(/C=N/NC(=O)c2nnn(-c3nonc3N)c2CN2CCCCCC2)cc1	-1	-6	-6	-0.8	.	3.8%	.
CC(C)(C)SCCNC(=O)COc1ccccc1	11	0	-8	-2.3	0%	-1.0%[38.3 µM]	-2
Cc1nc2ccc(C(=O)NCCCn3ccnc3)cn2c1N(C)C(=O)CCc1ccccc1	6	-3	3	2.6	.	1.3%	.
COCc1c(C(=O)OCC(=O)c2ccc[nH]2)oc2ccccc12	2	8	1	5.5	.	7.0%	.
CC(C)OC(=O)c1cc(NC(=O)c2nn(C)cc2Br)cc(C(=O)OC(C)C)c1	2	10	-32	0.4	13%	12%	-6

As a short view, part of the list above.
SMILES	CtBP-E1A inh	Six1-Eya2 blk	D2 PAM	D2 ag	Sfp inh	PINK1 modulator	TRPV1 potentiator
COc1ccc2oc(C(=O)c3ccccc3)c(N)c2c1	3	8	1	-2.4	5%	0.9%	3
CCOC(=O)NC(=O)/C(C=Nc1ccc(Cl)cc1)=C(\C)O	5	-3	-4	-4.8	20%	0.2%	0
COc1cc(C(=O)OCc2nc3ccsc3c(=O)[nH]2)c([N+](=O)[O-])cc1OC	1	-4	-11	-5.1	.	-0.6%	5
Cc1noc(C)c1C(=O)N1CCN(S(=O)(=O)c2cccs2)CC1	-1	1	9	-4.8	.	0.1%	.
CC(=O)c1c(C)[nH]c(C(=O)OCC(=O)N2c3ccccc3NC(=O)C2(C)C)c1C	-21	-14	1	-1.7	0%	1.9%	-13
